Source: PubChem BioAssay
NOMO-1 viab: STK33 inhibitor candidate reducing NOMO-1 cell viability; hit rate 7.5% among 37,000; NOMO-1 AML viability, CellTiter-Glo luminescence, 72 h; inhibition, % (no concentration beside the values); AID 2330;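 active = most replicates above 80%; inconclusive = exactly half above 80%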;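 note: wells of about 30 µL received 25 nL stock; 0% = median of vehicle wells and 100% = reference inhibitor level; the first replicate is given; inactives centre near 10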
Starred values were filed as active, the others as inactive; ? = inconclusive.

SMILES	NOMO-1 viab
O=C(O)c1cc(N(Cc2ccccc2O)Cc2ccccc2O)ccc1O	0.0
CSc1nnc(-c2ccccc2N)c(=O)[nH]1	13.3
O=C1c2ccccc2NC(c2ccccc2)N1N=C1CCCCCC1 (stereo unspecified)	14.9
COC(=O)c1c(NC(=O)c2cc(-c3ccccn3)nc3c(C)cc(C)cc23)sc(C)c1C	19.6
Cc1ccc(S(=O)(=O)Nc2ccc3c(c2)C(=O)N([C@@H](C)CO)C[C@H](C)[C@@H](CN(C)Cc2ccc(Cl)c(Cl)c2)O3)cc1	106.4*
C[C@@H]1CN([C@@H](C)CO)C(=O)c2cc(NC(=O)CCC(F)(F)F)ccc2O[C@H]1CN(C)Cc1ccc(Cl)c(Cl)c1	43.0
COc1ccc(Cl)cc1NC(=O)CN(C)S(=O)(=O)c1c(C)cc(C)cc1C	17.8
O=C(Nc1ccccc1Cl)c1cc2ccccc2cc1O	131.6*
C[C@@H]1CN([C@H](C)CO)C(=O)c2cccc(NC(=O)Nc3ccc(F)cc3)c2O[C@@H]1CN(C)Cc1ccc(C(=O)O)cc1	-3.0
COc1ccc(NC(=O)N(C)C[C@@H]2Oc3ccc(NS(C)(=O)=O)cc3CC(=O)N([C@@H](C)CO)C[C@@H]2C)cc1	-2.9
COc1ccc(NC(=O)CN(C)S(=O)(=O)c2ccc(C)cc2)cc1	4.5
O=C(Cc1ccccc1)NC1CCN(C(=O)C2CCC2)CC1	22.7

The list goes on; it opens with the 5 that closed the last part.
SMILES	NOMO-1 viab
O=C(Nc1ccccc1Cl)c1cc2ccccc2cc1O	131.6*
C[C@@H]1CN([C@H](C)CO)C(=O)c2cccc(NC(=O)Nc3ccc(F)cc3)c2O[C@@H]1CN(C)Cc1ccc(C(=O)O)cc1	-3.0
COc1ccc(NC(=O)N(C)C[C@@H]2Oc3ccc(NS(C)(=O)=O)cc3CC(=O)N([C@@H](C)CO)C[C@@H]2C)cc1	-2.9
COc1ccc(NC(=O)CN(C)S(=O)(=O)c2ccc(C)cc2)cc1	4.5
O=C(Cc1ccccc1)NC1CCN(C(=O)C2CCC2)CC1	22.7
C[C@@H]1CN([C@@H](C)CO)C(=O)c2cccc(NS(=O)(=O)c3ccc(F)cc3)c2O[C@@H]1CN(C)Cc1ccccc1	39.9
CCOc1ccc(NC(=O)Cn2cc(C(=O)OC)c3ccccc32)cc1	0.8
CC(=O)OC[C@@]12C(=O)C[C@@H](C)[C@]3(C[C@@H](c4ccoc4)OC3=O)[C@H]1CC[C@H](OC(C)=O)[C@]21CO1	8.3
O=C(CSc1nc(O)cc(=O)[nH]1)Nc1cc(Cl)cc(Cl)c1	10.3
CC(=O)c1ccc(-n2c(CCC(=O)O)ccc2-c2ccc(Br)cc2)cc1	33.7
CN(C)CCN(C)Cc1cc([N+](=O)[O-])ccc1O	19.2
C[C@@H]1CN([C@H](C)CO)C(=O)Cc2cc(NC(=O)CCCCCC(=O)Nc3ccccc3N)ccc2O[C@@H]1CN(C)C(=O)Nc1ccc(F)cc1	19.6
CNC[C@@H]1Oc2c(NS(=O)(=O)c3cccs3)cccc2C(=O)N([C@H](C)CO)C[C@@H]1C	10.7
CC1(C)CC[C@]2(C(=O)O[C@@H]3O[C@H](CO)[C@@H](O)[C@H](O)[C@H]3O)CC[C@]3(C)C(=CCC4[C@@]5(C)C[C@@H](O)[C@H](O)[C@@](C)(CO)C5[C@H](O)C[C@]43C)C2[C@@H]1O (stereo partly specified)	0.2
C[C@@H]1CN([C@H](C)CO)C(=O)c2cccc(NC(=O)c3cnccn3)c2O[C@H]1CN(C)Cc1ccncc1	5.2
C[C@@H]1CN([C@@H](C)CO)C(=O)c2cc(NC(=O)CCN3CCOCC3)ccc2O[C@H]1CN(C)S(=O)(=O)c1ccc(Cl)cc1	-16.7
Cn1c(SCC(=O)Nc2ccc(C(N)=O)cc2)nnc1-c1ccccn1	2.1
C[C@@H]1CN([C@@H](C)CO)C(=O)c2cccc(NC(=O)Nc3ccc4c(c3)OCO4)c2O[C@@H]1CN(C)C(=O)Nc1ccc(F)cc1	13.0
COc1ccc(C(=O)CSc2nc3nc(C)cc(C)n3n2)cc1OC	8.4
COCOc1ccc(C(=O)O)cc1OC	-6.5
CC(C)NC(=O)Nc1cccc2c1O[C@H](CN(C)C(=O)Nc1cccc3ccccc13)[C@H](C)CN([C@H](C)CO)C2=O	14.1
C[C@@H]1CN([C@@H](C)CO)C(=O)c2cccc(NS(=O)(=O)c3cn(C)cn3)c2O[C@H]1CN(C)Cc1ccc(C(=O)Nc2ccccc2N)cc1	25.8
CCCNC(=O)Nc1ccc(N2CCC(C(F)(F)F)CC2)nc1	-33.7
O=C(Cc1ccccc1)NC1CCCCCC1	11.5
C[C@H](CO)N1C[C@H](C)[C@H](CN(C)C(=O)Nc2ccc3c(c2)OCO3)Oc2ccc(NC(=O)CCN3CCOCC3)cc2CC1=O	-12.5
COc1ccc(OC)c(NC(=O)Cn2nc([N+](=O)[O-])cc2C)c1	-13.5
Cc1ccc(S(=O)(=O)Nc2ccc3c(c2)C(=O)N([C@H](C)CO)C[C@H](C)[C@H](CN(C)C(=O)Nc2ccccc2)O3)cc1	13.2
COc1ccc(OC)c(NC(=O)c2ccc(CSc3nnnn3C)cc2)c1	-22.9
C[C@@H]1CN([C@@H](C)CO)C(=O)c2cc(NS(=O)(=O)c3ccccc3)ccc2O[C@H]1CN(C)Cc1ccc(C(=O)Nc2ccccc2N)cc1	37.8
CC(C)NC(=O)Nc1ccc2c(c1)CC(=O)N([C@@H](C)CO)C[C@H](C)[C@@H](CN(C)C)O2	16.0
O=C(CSc1ncnc2sc3c(c12)CCCC3)Nc1cccc(F)c1	31.2
C[C@H]1CN([C@@H](C)CO)C(=O)c2cc(NC(=O)CCC(F)(F)F)ccc2O[C@H]1CN(C)S(=O)(=O)c1ccc(Cl)cc1	23.5
C[C@@H]1CN([C@H](C)CO)C(=O)Cc2cc(NC(=O)Cc3cn(C)c4ccccc34)ccc2O[C@@H]1CN(C)S(=O)(=O)c1ccccc1	30.0
CCc1ccc(C(=O)Nc2nccs2)cc1	65.3
CCOC(=O)c1cc2c(oc1=O)c(I)cc1oc3c(c12)CCCC3	-7.4
COc1ccc(NC(=O)N(C)C[C@H]2Oc3c(NS(=O)(=O)c4ccc(C)cc4)cccc3C(=O)N([C@@H](C)CO)C[C@@H]2C)cc1	17.7
Cc1ccc(S(=O)(=O)N(C)C[C@H]2Oc3ccc(NC(=O)Nc4ccccc4)cc3CC(=O)N([C@@H](C)CO)C[C@@H]2C)cc1	-7.1
COc1ccc(NC(=O)CC(=O)CSc2ccccc2)cc1	112.3*
O=C(CS(=O)(=O)c1ccc2ccccc2c1)c1cc2ccccc2oc1=O	23.4
O=C(Cn1nnc2ccccc21)OCc1ccccc1Cl	-4.1
C[C@@H]1CN([C@@H](C)CO)C(=O)c2cccc(NS(=O)(=O)c3ccc(F)cc3)c2O[C@@H]1CN(C)Cc1ccc(-c2ccccc2)cc1	84.5*

Individual results from the results shown:
Under NOMO-1 viab, C[C@H]1CN([C@@H](C)CO)C(=O)c2cc(NC(=O)CCC(F)(F)F)ccc2O[C@H]1CN(C)S(=O)(=O)c1ccc(Cl)cc1 has 23.5
Under NOMO-1 viab, O=C(CSc1ncnc2sc3c(c12)CCCC3)Nc1cccc(F)c1 has 31.2

More structures follow.
SMILES	NOMO-1 viab
CNC[C@@H]1OCCCC[C@@H](C)Oc2ccc(NC(=O)Nc3ccccc3)cc2C(=O)N([C@H](C)CO)C[C@@H]1C	-12.1
C[C@H]1CN([C@@H](C)CO)C(=O)c2cccc(NS(=O)(=O)c3ccc(Cl)cc3)c2O[C@H]1CN(C)S(=O)(=O)c1ccc(Cl)cc1	18.3
COc1ccc(OC)c(NC(=O)COc2ccc([N+](=O)[O-])cc2)c1	-18.0
C[C@@H]1CN([C@H](C)CO)C(=O)Cc2cc(NC(=O)Nc3ccc4c(c3)OCO4)ccc2O[C@H]1CN(C)Cc1ccccc1	-0.6
COc1ccc(NC(=O)Nc2ccc3c(c2)C(=O)N([C@H](C)CO)C[C@@H](C)[C@H](CN(C)S(=O)(=O)c2ccc(OC)cc2)O3)cc1	-4.5
C[C@@H]1CN([C@@H](C)CO)C(=O)c2cccc(NC(=O)Nc3ccc(C(F)(F)F)cc3)c2O[C@@H]1CN(C)C(=O)NC1CCCCC1	37.0
COc1ccc(S(=O)(=O)Nc2ccc3c(c2)C(=O)N([C@@H](C)CO)C[C@H](C)[C@H](CN(C)S(=O)(=O)c2ccc(OC)cc2)O3)cc1	0.6
C[C@@H]1CN([C@@H](C)CO)C(=O)Cc2cc(NS(=O)(=O)c3cn(C)cn3)ccc2O[C@@H]1CN(C)CC1CCCCC1	-13.6
Nc1ccc(-c2nnc(SCC(=O)c3ccc(F)cc3)n2-c2ccccc2)cc1	-10.5
C[C@@H]1CN([C@H](C)CO)C(=O)c2cccc(NS(C)(=O)=O)c2O[C@@H]1CN(C)Cc1ccccc1	9.2
C[C@@H]1CN([C@H](C)CO)C(=O)c2cccc(NC(=O)C3CC3)c2O[C@@H]1CN(C)Cc1ccc(-c2ccccc2)cc1	16.9
O=C(Cn1nc(C(F)(F)F)c2c1CCCCC2)Nc1ccc(S(=O)(=O)N2CCCC2)cc1	44.9
CCN1/C(=C2/SC(=S)NC2=O)Sc2ccccc21	-8.9
Cc1cc(I)ccc1NC(=O)CN(c1cc(Cl)ccc1C)S(C)(=O)=O	31.9
CC(=O)NC1=NN(C(C)=O)C(C)(CS(=O)(=O)c2ccc(C)cc2)S1 (stereo unspecified)	-12.5
O=C(CSc1nc2ccccc2s1)Nc1ccccc1N1CCOCC1	9.5
O=C(Nc1ccccc1-c1nc2ccccc2s1)c1ccc(-c2ccccc2[N+](=O)[O-])o1	36.0
C[C@H]1CN([C@@H](C)CO)C(=O)c2cc(NC(=O)Nc3ccc(F)cc3)ccc2O[C@@H]1CN(C)S(=O)(=O)c1ccc(F)cc1	-2.4
NC(=O)c1ccc(NC(=O)C2CCCN(S(=O)(=O)c3ccc(Br)cc3)C2)cc1 (stereo unspecified)	6.9
O=S(=O)(C1=CC23CCCC2(C=C(S(=O)(=O)c2ccc(Cl)cc2)C3)C1)c1ccc(Cl)cc1 (stereo unspecified)	-6.5
COc1cc(CO)ccc1Oc1nc([N+](=O)[O-])nn1Cc1ccccc1F	4.0
CCOC(=O)Nc1c[n+](N2CCOCC2)no1	-17.6
O=C(NCc1ccco1)C1CC(=O)N(c2ccc(O)cc2)C1 (stereo unspecified)	5.7
C[C@@H]1CN([C@@H](C)CO)C(=O)c2cccc(NC(=O)C3CC3)c2O[C@H]1CN(C)S(=O)(=O)c1ccc(Cl)cc1	19.6

2 entries drawn at random from those above, as already listed:
SMILES	NOMO-1 viab
NC(=O)c1ccc(NC(=O)C2CCCN(S(=O)(=O)c3ccc(Br)cc3)C2)cc1 (stereo unspecified)	6.9
O=C(CSc1nc2ccccc2s1)Nc1ccccc1N1CCOCC1	9.5

Going on with the list.
SMILES	NOMO-1 viab
C[C@@H]1CN([C@H](C)CO)C(=O)c2cc(NC(=O)Cc3cn(C)c4ccccc34)ccc2O[C@H]1CN(C)C(=O)Nc1ccc(C(F)(F)F)cc1	14.4
C[C@@H]1CN([C@H](C)CO)C(=O)c2cc(N(C)C)ccc2O[C@@H]1CN(C)Cc1ccccc1	1.0
C[C@H](CO)N1C[C@H](C)[C@H](CN(C)S(=O)(=O)c2cn(C)cn2)Oc2ccc(NS(=O)(=O)c3cn(C)cn3)cc2CC1=O	-8.1
C[C@@H]1CCCCO[C@H](CN(C)C)[C@@H](C)CN([C@H](C)CO)C(=O)c2cc(N(C)C)ccc2O1	17.8
C[C@@H]1CN([C@@H](C)CO)C(=O)c2cc(NS(=O)(=O)c3ccc(F)cc3)ccc2O[C@@H]1CN(C)CC1CC1	15.9
C[C@H]1CN([C@@H](C)CO)C(=O)c2cccc(NC(=O)c3ccc(-c4nccs4)cc3)c2O[C@@H]1CN(C)Cc1ccc2c(c1)OCO2	17.5
CCn1c2c(c3cc(OCc4ccccc4)ccc31)CCCC2=O	38.3
CNC[C@@H]1Oc2ccc(NS(=O)(=O)c3ccc(C)cc3)cc2CC(=O)N([C@@H](C)CO)C[C@@H]1C	-4.6
CN(C)/C=C/C(=O)C12CC3CC(CC(C3)C1)C2	-13.8
Cc1cc2ccccc2n2c(SCC(=O)NCc3ccco3)nnc12	111.5*
CS(=O)(=O)N(CC(=O)Nc1ccc(I)cc1)C1CCCCC1	52.8
COc1ccc(NC(=O)CSc2nnnn2C)cc1	21.4
C[C@@H]1CCCCO[C@H](CN(C)Cc2ccc(Cl)c(Cl)c2)[C@@H](C)CN([C@H](C)CO)C(=O)c2cc(NC(=O)C3CCCCC3)ccc2O1	64.9
CC(C)NC(=O)N(C)C[C@H]1Oc2ccc(NC(=O)CCN3CCOCC3)cc2C(=O)N([C@H](C)CO)C[C@H]1C	-1.7
C[C@@H]1CCCCO[C@@H](CN(C)C(=O)Nc2ccc(C(F)(F)F)cc2)[C@@H](C)CN([C@H](C)CO)C(=O)c2cc(NC(=O)CCCCCC(=O)Nc3ccccc3N)ccc2O1	?
CNC[C@H]1Oc2c(NC(=O)Nc3ccc4c(c3)OCO4)cccc2C(=O)N([C@H](C)CO)C[C@H]1C	-2.4
Cc1cccc(NC(=O)CSc2nnc(-c3ccccc3)n2C2CCCCC2)c1C	22.3
C[C@@H]1CN([C@@H](C)CO)C(=O)c2cccc(NS(C)(=O)=O)c2O[C@@H]1CN(C)Cc1ccncc1	9.6
COc1ccc(S(=O)(=O)Nc2ccc3c(c2)C(=O)N([C@@H](C)CO)C[C@H](C)[C@H](CN(C)S(=O)(=O)c2ccccc2)O3)cc1	12.6
CC(=O)OCc1ccccc1Sc1ccccc1C(=O)Nc1ccccc1	10.9
O=C1CCC=CC1(O)C(=O)OCc1cccc(O)c1OC1OC(CO)C(O)C(O)C1O (stereo unspecified)	42.2
Cc1nc2sccn2c(=O)c1CCN1CCC(=C(c2ccccc2)c2ccc(F)cc2)CC1	29.2

Not all compounds are listed; count on the stated rates, not on these rows.
